HPGD inh = qHTS Assay for Inhibitors of HPGD (15-Hydroxyprostaglandin Dehydrogenase) | purified HPGD, NADH fluorescence kinetic, PGE2 substrate | 4.3% of 150,000 active | Potency, µM, for the others: at the highest dose activity change, negative = inhibition, hits mostly inhibitors | AID 894, 2007; active = well fitted inhibition curve with a large enough effect (not every such curve was filed as active); inconclusive = small, poorly fitted or top-dose-only effect, or another doubt; inactive = no such curve, though single readings can be large or run the other way;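 also: top concentration of the series not given in the record; plate controls included wells without enzyme; inactives centre near -10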
Target sequence (P15428 whole entry, looked up): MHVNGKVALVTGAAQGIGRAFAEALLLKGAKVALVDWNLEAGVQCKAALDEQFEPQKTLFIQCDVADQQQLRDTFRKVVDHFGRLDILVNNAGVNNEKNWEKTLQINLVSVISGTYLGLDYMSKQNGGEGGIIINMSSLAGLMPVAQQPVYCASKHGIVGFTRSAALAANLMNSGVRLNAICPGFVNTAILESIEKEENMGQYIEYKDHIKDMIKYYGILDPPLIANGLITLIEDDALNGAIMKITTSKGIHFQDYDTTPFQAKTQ
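NADH formation kinetics: reaction with 30 uM PGE2 and 1 mM NAD+ (final), 20 nM enzyme, Tris-HCl pH 8 with Tween 20, after 15 min compound preincubation at room temperature. Fluorescence change, last versus first of five reads.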
The depositor's hits bear a star; & = joins results of further samples; ! = repeats disagree. % is scaled to controls: 0 for no effect and ±100 for the full control effect; potency is read from the fitted curve at half-maximal effect. An excerpt; rates above refer to the full screens.

Preview (6 entries):
CN(C)C1C(=O)C(C(N)=O)=C(O)[C@@]2(O)C(=O)C3=C(O)c4c(O)cccc4[C@](C)(O)C3C(O)C12 (some centres undefined) was read as HPGD inh inconclusive.
Screening CCCOC(=O)c1ccccc1C(=O)OCCC returned HPGD inh -8%.
For CCn1nc(-c2cccs2)nc2c(=O)n(C)c(=O)nc1-2 the results were HPGD inh -30%.
`CC(NC(=O)Oc1ccccc1)C(c1cccs1)N1CCOCC1` (centres undefined) gave HPGD inh 1%.
CC[n+]1c(SC)ccc2cc(OC)ccc21 was read as HPGD inh inconclusive.
For O=[N+]([O-])c1ccc(C2[C@H]3C(c4ccccc4)=NC4(CCCC4)N23)cc1 (some centres undefined) the results were HPGD inh -12%.

This part in full, from the first entry:
CN(C)C1C(=O)C(C(N)=O)=C(O)[C@@]2(O)C(=O)C3=C(O)c4c(O)cccc4[C@](C)(O)C3C(O)C12 (some centres undefined) was read as HPGD inh inconclusive.
Screening CCCOC(=O)c1ccccc1C(=O)OCCC returned HPGD inh -8%.
For CCn1nc(-c2cccs2)nc2c(=O)n(C)c(=O)nc1-2 the results were HPGD inh -30%.
`CC(NC(=O)Oc1ccccc1)C(c1cccs1)N1CCOCC1` (centres undefined) gave HPGD inh 1%.
CC[n+]1c(SC)ccc2cc(OC)ccc21 was read as HPGD inh inconclusive.
For O=[N+]([O-])c1ccc(C2[C@H]3C(c4ccccc4)=NC4(CCCC4)N23)cc1 (some centres undefined) the results were HPGD inh -12%.
CC[C@]1(OC(=O)CN)C(=O)OCc2c1cc1n(c2=O)Cc2cc3ccccc3nc2-1 was read as HPGD inh inconclusive.
`NP(N)(=O)NC(=O)c1ccc(F)cc1` gave HPGD inh -7%.
`CC(=O)N1N=C2C3CCN(CC3)C2C1c1ccccc1` (centres undefined) gave HPGD inh -4%.
Screening CN1CCN(C(=O)COc2ccc(-c3nc4ccccc4s3)cc2)CC1 returned HPGD inh inconclusive.
For CN1[C@@H](C[C@@H](O)c2ccccc2)CCC[C@@H]1C[C@H](O)c1ccccc1 the results were HPGD inh 1%.
`N=C(N)SCc1ccc(Cl)c2ccccc12` (tested in a mixture with another compound) gave HPGD inh 4.5µM*!.
`COc1ccc(CCn2c(O)c(/C=N/NC(=O)c3ccncc3)c(=O)[nH]c2=O)cc1OC` gave HPGD inh inconclusive.
For CN1C(=O)N(C)C(=O)C(CCc2ccncc2)(Cc2ccc3c(c2)OCO3)C1=O the results were HPGD inh -3%.
CCCn1c(=O)c2[nH]c(C3CCCC3)nc2n(CCCOC(=O)c2ccc(S(=O)(=O)F)cc2)c1=O was read as HPGD inh -10%.
N[C@H]1C[C@H]1c1ccccc1 was read as HPGD inh -6%.
Screening C1CC2OC2CC1C1CO1 (centres undefined) returned HPGD inh -7%.
Clc1ccc(C2CC3CCC2N3)cn1 (centres undefined) was read as HPGD inh inconclusive.
For CC(C)c1ccc(-n2c(O)c(/C=N/NC(=O)c3ccncc3)c(=O)[nH]c2=O)cc1 the results were HPGD inh -29%.
For O=C(Nc1ccc([As](=O)(O)O)cc1)Nc1cccc(Cl)c1Cl the results were HPGD inh -8%.
Screening O=C(O)[C@H](Cc1cnc[nH]1)N1C(=O)c2ccccc2C1=O returned HPGD inh -1%.
`Cc1cc(OCc2cc(C(=O)O)oc2C)c2c3c(c(=O)oc2c1)CCCC3` gave HPGD inh inconclusive.
`O=C1C(=O)c2ccccc2-c2ccccc21` gave HPGD inh -11%.
For C=CCn1c(O)c(C(=O)CCCCCC)c(=O)[nH]c1=O the results were HPGD inh -14%.
For O=C1CC(N2CCC(n3c(=O)[nH]c4ccccc43)CC2)C(=O)N1c1ccc(F)cc1 (centres undefined) the results were HPGD inh -1%.
For CC1C(=O)OC2C(O)C34C5OC(=O)[C@@]3(OC3OC(=O)[C@H](O)[C@]34C(C(C)(C)C)C5O)[C@]12O (some centres undefined) the results were HPGD inh -5%.
Screening N#CCCCC[N+]12CN3CN(CN(C3)C1)C2 returned HPGD inh 1%.
Screening C=CCc1c(C)[nH]c(=S)c(C#N)c1C returned HPGD inh 4µM*.
For CN1C(=O)CN=C(c2ccc(Cl)cc2)c2cc(Cl)ccc21 the results were HPGD inh -10%.
O=C(N/N=C/c1c(O)n(CCC2=CCCCC2)c(=S)[nH]c1=O)c1ccccc1 was read as HPGD inh inconclusive.
COc1ccccc1N was read as HPGD inh -8%.
For O=C1C=C2C(=CCOC2O)O1 (centres undefined) the results were HPGD inh -6%.
Screening CCN1C[C@@]2(COC)[C@H]3[C@@H](OC)[C@H]4C1[C@@]3([C@H](OC)C[C@@H]2O)[C@H]1C[C@@]2(O)[C@@H](OC(=O)c3ccccc3)[C@@H]1[C@@]4(OC(C)=O)[C@H](O)[C@@H]2OC returned HPGD inh -6%.
CCC1(c2ccc(N)cc2)CCC(=O)NC1=O (centres undefined) was read as HPGD inh -14%&-9%.
Screening C[C@H]1O[C@@H](O[C@H]2[C@@H](O)C[C@H](O[C@H]3[C@@H](O)C[C@H](O[C@H]4CC[C@]5(C)C6CC[C@]7(C)[C@@H](C8=CC(=O)OC8)CC[C@]7(O)C6CC[C@@H]5C4)O[C@@H]3C)O[C@@H]2C)C[C@H](O)[C@@H]1O (some centres undefined) returned HPGD inh -3%.
CCCCCCCCCCCCCCCC(=O)OC[C@H](COP(=O)([O-])OCC[N+](C)(C)C)OC(C)=O was read as HPGD inh -6%.
Screening Cc1ccc(CC2C(=O)N(C)C(=O)N(C)C2=O)s1 returned HPGD inh inconclusive.
`O=C(COc1ccccc1)N1CCN(CC2CC3C=CC2C3)CC1` (centres undefined) gave HPGD inh -8%.
For Cc1nn(C)c(C)c1-c1cccc2c1CCC(N(C)C)C2 (centres undefined) the results were HPGD inh inconclusive.
For CN1C2CC(OC(=O)C(CO)c3ccccc3)CC1C(O)C2 (centres undefined) the results were HPGD inh -12%.
`COC1=CC(=O)O[C@@H](/C=C/c2ccc3c(c2)OCO3)C1` gave HPGD inh -6%.
CCOP(=O)(OCC)c1nc(-c2cccc3ccccc23)oc1NCc1ccccc1 was read as HPGD inh inconclusive.
Cc1nn(Cc2ccccc2Cl)c(C)c1C(=O)OCC(=O)NC1CCCC(C)C1C (centres undefined) was read as HPGD inh -8%.
`COc1ccc(C(=O)CC2C(=O)N(C)C(=O)N(C)C2=O)cc1` gave HPGD inh -28%.
Screening CC(=O)N1CC[N+](C)(C)CC1 returned HPGD inh -21%.

3 compounds picked at random from the list so far:
`COC1=CC(=O)O[C@@H](/C=C/c2ccc3c(c2)OCO3)C1` gave HPGD inh -6%.
CCOP(=O)(OCC)c1nc(-c2cccc3ccccc23)oc1NCc1ccccc1 was read as HPGD inh inconclusive.
Screening CC(=O)N1CC[N+](C)(C)CC1 returned HPGD inh -21%.

Source: PubChem BioAssay
